NPYLR7 ag = activates Aedes aegypti NPYLR7 receptor; HEK293T NPYLR7/Galpha15, GCaMP6s calcium fluorescence; activation, % at 10 µM; actives 0.15% (n = 270,000); in the data active = activation above about 40%;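 note: 0% = vehicle and 100% = reference agonist at the receptor; some compounds past the cut are filed as inactive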
NPYLR7 ag max-min = recorded beside NPYLR7 ag, whose call it bears; activation, %; measured here: Max-Min RFU normalised activation; some inactives read as strong as hits;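 span of the calcium signal over five minutes; 0% = vehicle and 100% = native peptide agonist; compound fluorescence can raise it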
* = called active by the depositor; i = inactive; & = joins results of further samples. A portion of the library; count on the stated rates, not on these rows.

SMILES	NPYLR7 ag	NPYLR7 ag max-min
CCN(CC)CCSc1nc(-c2cccc(OC)c2)nc2c1c(=O)n(C)c(=O)n2C	-4	-8
C1=C(CCNc2nncc(-c3ccccc3)n2)CCCC1	10	2
O=C1NCC2(CCCN(C(=O)c3ccc(Oc4ccccc4)o3)CC2)O1 (stereo not drawn)	7	4
CC(NC(=O)c1ccc(CSc2nc(Cl)cc(N3CCCCC3)n2)cc1)c1ccccc1 (stereo not drawn)	14	12
CCCc1cc(=O)[nH]c(-n2nc(C)cc2N)n1	-2	-3
CCCc1c(C(=O)O)c(C2CC2)nn1-c1ccc(OC)cc1	8	20
O=C1O[C@@H]2[C@H]3[C@@H]([C@H]1C[C@H]2O)N(c1ccccc1)C(=S)N3Cc1ccccc1	-12	-16
C=CCN(CCSc1ccccc1)C(=O)C1CCCN(C(N)=O)C1 (stereo not drawn)	-2	4
COc1ncc(C(=O)N2CCC3(CCNCC3)CC2)cn1	6	3
CC(C)C(NCc1ccc(CO)o1)C(=O)N1CCOCC1 (stereo not drawn)	6	2
COc1ccc(NC(=O)Cn2c3ccc(C)cc3c3ncn(Cc4ccccc4)c(=O)c32)cc1OC	-4	-10
CCc1ccc(S(=O)(=O)N2CCN(c3ccc(-c4cccnc4)nn3)CC2)s1	1	21
CN(C)C(=O)N1CCC(C(=O)N2CCCC(C(=O)c3ccc4c5c(cccc35)CC4)C2)CC1 (stereo not drawn)	6	-4
O=C(N[C@@H]1CCCCC1NC(=O)C1CCN(C(=O)c2cccc(Cl)c2)CC1)c1ccc(F)cc1 (stereo partly drawn)	-8	0
CCSc1nnc2nc(C)cc(C)n12	-1	7
O=C(Cc1ccccc1)N1CCCC(OCc2ccccc2Cl)C1 (stereo not drawn)	-9	-2
Cc1ccc(NC(C)c2ccccc2Cl)cc1NS(C)(=O)=O (stereo not drawn)	7	-3
O=C(Nc1ccc2c(c1)CCC2)N[C@@H](Cc1ccccc1)C(=O)N1CCC(C(=O)N2CCCCC2)CC1	-14	-11
CN1CCN2CCN(C(=O)c3cccc(-c4ncc[nH]4)c3)CC2C1 (stereo not drawn)	8	6
CN(C)C(=O)c1ccccc1NCCOCC(F)(F)F	0	0
CC1CC(C)CN(c2nc3c(c(=O)n(C)c(=O)n3C)n2CCSc2nc3ccccc3s2)C1 (stereo not drawn)	10	4
CCn1ncnc1CN1CCC2(CCCN(C(=O)COc3ccccc3)C2)C1 (stereo not drawn)	3	4
Cc1cccc(Nc2nc(C)cc(C)c2C#N)c1	-2	-5
CCn1ccc2ccn(CC(=O)N3CCN(c4ccc(OC)cc4)CC3)c(=O)c21	8	7
CCN(C)C(=O)c1cccc(C(=O)N(C)Cc2cccc(O)c2)c1	8	3
Additional compounds follow.
SMILES	NPYLR7 ag	NPYLR7 ag max-min
Cc1cc(C)n(-c2ccc(C(=O)NCCS(N)(=O)=O)cc2F)n1	12	i
COc1cccc(S(=O)(=O)NCc2ccc(C(=O)Nc3ccc(Cl)c(Cl)c3)cc2)c1	-3	-6
COc1ccc(-n2c(SC3CCCCNC3=O)nnc2-c2ccncc2)cc1 (stereo not drawn)	12	10
Cc1oc(-c2ccc(F)cc2)nc1CN(C)Cc1cccc(C(F)(F)F)c1	16	15
O=C1/C(=C/c2ccc(-c3cccc(Cl)c3)o2)NC(=S)N1c1ccccc1	4	12
Oc1ccc(C=NN2CCOCC2)c(O)c1O	12	9
C=CCN(C)[C@H]1[C@H](Oc2ccccn2)C[C@@H]2CC(C)(C)OC[C@]21O	0	7
COc1ccc(N2CC(NC(=O)N3CCC(C)CC3)CC2=O)cc1OC (stereo not drawn)	0	-3
COC1=CC(=O)C=C(OC)C1=O	-30	-29
CCC(C)(N)c1nc(-c2cccs2)cc(=O)[nH]1 (stereo not drawn)	4	2
Cc1ccc(N(Cc2ccco2)C(=O)c2cc([N+](=O)[O-])cc([N+](=O)[O-])c2)cc1	-7	-12
O=C(c1cnn2c1NC(c1ccc(Br)cc1)CC2C(F)(F)F)N1CCCCC1 (stereo not drawn)	9	6
O=C(NC1CC2CCC(C1)N2CCc1ccc(F)cc1)c1ccc(F)cc1F (stereo not drawn)	1	3
Cc1onc(-c2ccccc2)c1C(=O)N1CCN(c2c(-c3ccccc3)cnc3ncnn23)CC1	1	-2
CC1CN(c2cc(Cl)nc(SCC(=O)NCCc3ccc(Cl)cc3Cl)n2)CCN1C(=O)c1ccc(F)cc1 (stereo not drawn)	13	25
Cc1nc(CN(C)C(=O)c2ccc(CSc3ccccn3)cc2)no1	4	1
COCC(C)n1c(C)cc(C(=O)Cn2cc(C(F)(F)F)cc(Cl)c2=O)c1C (stereo not drawn)	0	-2
Cc1cc(N2CCN(CC(=O)N3CCOCC3)CC2)nc(-c2ccncc2)n1	8	3
CC(C)N(CCC(N)=O)Cc1ccnc2ccccc12	-9	-11
Cc1cc(-n2cccn2)ccc1CNC(C)c1cnn(-c2ccc(F)cc2F)c1C (stereo not drawn)	10	-3
COc1ccc(CN(Cc2ccco2)C(=O)NC(C)C)cc1OS(=O)(=O)c1ccc(F)cc1	18	11
CCCSc1nnc2[nH]c(=O)cc(C)n12	-9	-4
CC(=O)c1ccc(NC(=O)Cn2nc(C3CCN(S(C)(=O)=O)CC3)n(C)c2=O)cc1	-3	5
N#Cc1ccccc1CSc1nnc(NC(=O)C2CCC2)s1	-1	8
O=c1[nH]c(CN2CCN(c3ncccn3)CC2)nc2c(Br)cc(Br)cc12	-1	-2
Other entries:
SMILES	NPYLR7 ag	NPYLR7 ag max-min
CC(C)C1CN(Cc2cnn(C)c2C2CC2)CCC(=O)N1CC1CC1 (stereo not drawn)	5	1
Cc1cc(C)c2c(n1)nn1c(N3CCN(CCOc4cccc5ccccc45)CC3)cc(C)nc21	0	13
COc1ccc(C(=O)Nc2ccc3oc(-c4ccc(C(C)(C)C)cc4)nc3c2)cc1[N+](=O)[O-]	-4	-7
Cc1ccccc1-n1c(SCc2nc(C(=O)N3CCN(Cc4ccccc4)CC3)cs2)nnc1-c1cccnc1	-3	8
CCN(CC)S(=O)(=O)c1ccc(C(C#N)C(=O)CC(C)C)nc1 (stereo not drawn)	9	7
COc1ccc(-n2nnc3c(N4CCN(C(=O)c5ccccc5SC(F)F)CC4)ncnc32)cc1	-17	-25
Cc1cc(C)n(CC(C)Nc2ccc(-c3nccn3C)nn2)n1 (stereo not drawn)	4	-2
O=C(COc1cccc[n+]1[O-])N1CCc2ccccc21	3	1
N#Cc1ccc(Cc2cnc(N)s2)c(C(F)(F)F)c1	18	13
COC(=O)c1ccc(OCc2nc(-c3ccccc3)no2)cc1	-3	11
COCC1CN(c2ccc(C#N)cc2F)CCO1 (stereo not drawn)	-4	-9
C=C(c1ccc(Cl)cc1)C1SC(=S)NC1=O (stereo not drawn)	-9	-18
COCCNC(=O)C1CCCN(C2CCN(C(=O)c3ccncc3F)CC2)C1 (stereo not drawn)	-3	-7
O=c1[nH]c(NC2CCN(Cc3ccccc3)C2)nc2c1cnn2-c1ccccc1 (stereo not drawn)	0	1
COc1ccc(-c2ccc3c(c2)COC2(CCN(C(=O)c4ccc(F)cc4)CC2)O3)c(OC)c1	-3	-10
CCOC(=O)C1(Cc2ccc(F)cc2F)CCCN(S(=O)(=O)c2ccsc2)C1 (stereo not drawn)	3	-2
CCCc1cn(CC2CCN(C(=O)c3ccc4c(c3)OCO4)CC2)nn1	1	-1
Cc1ccc(C)c(NC(=O)CCC(=O)N2CCOCC2)c1	1	1
COc1ccc(CCNC(=O)c2c(-c3ccccc3)noc2C)cc1OC	2	-1
CN(Cc1nc(CC2CC2)no1)CC1COc2ccccc2O1 (stereo not drawn)	-1	-3
Oc1cc(O)c2c(c1)O[C@H](c1ccc(O)c(O)c1)[C@H](O)C2	-19	-15
CC(CCc1ccccc1)NC(=O)C1CCCN(c2cnc3ccccc3n2)C1 (stereo not drawn)	2	-1
CC1(C)CC(N2COc3c(cc(Cl)c4cccnc34)C2)CC(C)(C)N1	6	1
O=C(Nc1nnc([C@@H]2C[C@H](O)[C@@H](CO)O2)s1)NC1CCCCC1	-2	-4
O=C(O)c1cccc(Br)c1I	1	-1
(more compounds)
SMILES	NPYLR7 ag	NPYLR7 ag max-min
COc1ccc(CCNC(=O)CN2CN(c3ccccc3)C3(CCN(C(=O)COc4ccc(Cl)cc4)CC3)C2=O)cc1OC	18	17
CCOC(=O)c1cc(C(C)(C)C)n(C2CCN(C(=O)C3=NNC(=O)CC3)CC2)n1	-2	-6
Cc1nc(N2CCOCC2)sc1C(=O)Nc1ccccc1	-2	-3
C=C(C)COc1cccc(C(=O)N2CCOCC2CC(=O)O)c1 (stereo not drawn)	2	-1
CCOC(=O)CCC(=O)N1CCN(C(C(=O)Nc2cccc(OC)c2)C2CCCC2)CC1 (stereo not drawn)	9	5
COCCNCC(=O)N(Cc1ccccc1)Cc1sccc1C	11	12
CCN1C(=O)C(=Cc2ccccc2[N+](=O)[O-])SC1=S	1	-1
COc1ccc2nc(-c3ccc(NC(=O)c4ccccc4)cc3)cn2n1	-10	-17
O=C(c1cccs1)c1ccc(Cl)s1	1	8
CCS(=O)(=O)c1ccc2oc(-c3ccccc3NC(=O)c3ccccc3OC)nc2c1	4	9
CCOC(=O)C(=CNc1c(C)n(C)n(-c2ccccc2)c1=O)C(=O)OCC	-6	-9
CC(Oc1ccccc1)C(=O)NC1C(=O)N2C1SC(C)(C)C2C(=O)O (stereo not drawn)	-3	-5
Cc1sc2ccccc2c1CN1CC(c2ccncc2)C1	14	11
COC(=O)C1C=CCN1C(=O)c1cc(COc2ccccc2)[nH]n1 (stereo not drawn)	1	-6
c1ccc(CNc2nc3nonc3nc2N2CCC(OCc3cccnc3)CC2)cc1	-3	-6
COCCCn1c(SCc2ccccc2CS(=O)(=O)c2ccccc2)nnc1-c1cc(-c2ccccc2)nc2ccccc12	-1	6
O=C(Cn1ncn2nc(-c3ccc(F)cc3)cc2c1=O)NCc1ccc(F)cc1	-11	-17
COC(=O)Cn1c(=O)c2c(nc3n2CCCN3c2cc(C)cc(C)c2)n(C)c1=O	1	1
COc1ccc(OCc2nc(C(=O)N3CCCC3)cs2)cc1	-9	-7
O=C(Nc1ccccc1)c1cc2n(n1)CCNC2	2	-1
Cc1nnc(CN(C)C(=O)COc2ccc(I)cc2)n1C	-6	-6
O=C(CC1C(=O)Nc2ccccc2N1C(=O)c1cccs1)Nc1ccc(Cl)c(Cl)c1 (stereo not drawn)	11	11
Cc1cc(C)n(-c2ccc(C(=O)Nc3ccccc3C(C)C)cc2)n1	-9	-11
Cc1c(C(=O)NCC2CCCO2)cnn1-c1ccc(F)cc1 (stereo not drawn)	12	14
O=C(CC1CSc2nc3[nH]ncc3c(=O)n21)Nc1ccc(Cl)cc1Cl (stereo not drawn)	1	23

An excerpt of these results, in CSV form.
Compound,NPYLR7 ag,NPYLR7 ag max-min
COC(=O)C1C=CCN1C(=O)c1cc(COc2ccccc2)[nH]n1 (stereo not drawn),1,-6
c1ccc(CNc2nc3nonc3nc2N2CCC(OCc3cccnc3)CC2)cc1,-3,-6
COCCCn1c(SCc2ccccc2CS(=O)(=O)c2ccccc2)nnc1-c1cc(-c2ccccc2)nc2ccccc12,-1,6

Exported with bars between the fields: 4 of the compounds above.
SMILES | NPYLR7 ag | NPYLR7 ag max-min
CCN(C)C(=O)c1cccc(C(=O)N(C)Cc2cccc(O)c2)c1 | 8 | 3
Cc1ccccc1-n1c(SCc2nc(C(=O)N3CCN(Cc4ccccc4)CC3)cs2)nnc1-c1cccnc1 | -3 | 8
CC1CN(c2cc(Cl)nc(SCC(=O)NCCc3ccc(Cl)cc3Cl)n2)CCN1C(=O)c1ccc(F)cc1 (stereo not drawn) | 13 | 25
CC1(C)CC(N2COc3c(cc(Cl)c4cccnc34)C2)CC(C)(C)N1 | 6 | 1

Continuation.
SMILES	NPYLR7 ag	NPYLR7 ag max-min
COC[C@H](C)n1cnc(-c2ccccc2)c1-c1cc2c(cc1OC)OCO2	5	5
COc1ccc2[nH]c3c(c(=O)c2c1)CN(CC(=O)Nc1ccccc1C)CC3	4	7
COc1ccccc1OCc1nc(CN(CC(C)C)C(C)=O)cs1	-19	-18
CCc1nc2ccc(C(=O)N3CCCCC3)cn2c1N(C)Cc1cccs1	0	-10
CCCCNC(=O)N1CCN(c2nc(CCC)nc3onc(-c4ccc5ccccc5c4)c23)CC1	19	16
Cc1ccc(-n2ncc(C(=O)O)c2-c2ccccc2)cc1	-6	-14
CC(C)(C)c1ccc(C(=O)N2CCC2(C)C(=O)NS(=O)(=O)c2ccc(F)cc2F)cc1 (stereo not drawn)	3	2
COc1ccc(NC(=O)C2(C)CCN2Cc2ccc(-c3ccccn3)cc2)cc1OC (stereo not drawn)	1	-1
Cc1ccsc1CN1C[C@@H](C(=O)O)C[C@@H](C(=O)NC2CC2)C1	1	-1
OCCC1CN(Cc2c(F)cccc2Cl)CCN1C1CCCCC1 (stereo not drawn)	4&-3	5&-4
CCc1ccc(CN(C)C(=O)c2ccc3c(c2)no[n+]3[O-])nc1	-3	-3
O=[N+]([O-])c1ccccc1OC1OC(CO)C(O)C(O)C1O (stereo not drawn)	2	8
CCn1cncc1-c1c(-c2ccccc2)ncn1Cc1cc(COC)n[nH]1	14	-3
O=C(CCc1ccc(Cl)cc1Cl)N1CCN(C(=O)c2cccc(O)c2)CC1	-6	-7
CCCCCn1c(=O)c2c(nc3n2CC(C)=NN3CC(=O)OC)n(C)c1=O	9	8
CCCc1[nH]n(-c2cccc(Cl)c2)c(=O)c1C1=C([n+]2cc(C)cc(C)c2)C(=O)N(CC(C)C)C1=O	13	15

An excerpt from above in order of count of non-hydrogen atoms, highest first:
SMILES	NPYLR7 ag	NPYLR7 ag max-min
COCCCn1c(SCc2ccccc2CS(=O)(=O)c2ccccc2)nnc1-c1cc(-c2ccccc2)nc2ccccc12	-1	6
CCN(CC)CCSc1nc(-c2cccc(OC)c2)nc2c1c(=O)n(C)c(=O)n2C	-4	-8
O=C1NCC2(CCCN(C(=O)c3ccc(Oc4ccccc4)o3)CC2)O1 (stereo not drawn)	7	4
COCC1CN(c2ccc(C#N)cc2F)CCO1 (stereo not drawn)	-4	-9

Record cards, as listed above.
CCn1cncc1-c1c(-c2ccccc2)ncn1Cc1cc(COC)n[nH]1 as listed: NPYLR7 ag: 14; NPYLR7 ag max-min: -3
O=C(CCc1ccc(Cl)cc1Cl)N1CCN(C(=O)c2cccc(O)c2)CC1 as listed: NPYLR7 ag: -6; NPYLR7 ag max-min: -7

Bioassay records from PubChem.
